# VDR inhibitor – vitamin D3 receptor (human) inhibition. 400,000 tested, 0.93% active. AID 504847. Potency, µM, without a hit: max response, negative = inhibition, most hits filed as inhibitors. VDR-SRC2-3 peptide fluorescence polarization, 2 h. P11473; active means well fitted inhibition curve with a large enough effect; inconclusive means small, poorly fitted or top-dose-only effect, or another doubt; inactive means no such curve, though single readings can be large or run the other way; further: series mostly up to about 120 µM
# Target sequence (P11473 whole entry, looked up): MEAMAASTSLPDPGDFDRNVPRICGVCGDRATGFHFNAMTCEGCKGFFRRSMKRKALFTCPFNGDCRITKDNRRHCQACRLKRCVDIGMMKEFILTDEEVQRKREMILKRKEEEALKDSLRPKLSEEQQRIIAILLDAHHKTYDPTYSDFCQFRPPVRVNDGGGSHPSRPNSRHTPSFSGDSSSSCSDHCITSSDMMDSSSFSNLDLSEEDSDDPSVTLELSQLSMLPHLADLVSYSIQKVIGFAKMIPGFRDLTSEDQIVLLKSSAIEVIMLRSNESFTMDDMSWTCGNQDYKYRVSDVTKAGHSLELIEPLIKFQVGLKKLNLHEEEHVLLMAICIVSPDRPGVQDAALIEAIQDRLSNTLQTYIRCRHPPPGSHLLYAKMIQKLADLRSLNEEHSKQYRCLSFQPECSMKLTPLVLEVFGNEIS
#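 Reagent solutions, kept cold and dark, are dispensed first; compounds are then pinned in at 23 nl, plates briefly spun, and incubated 2 h at ambient temperature. Inhibition of VDR–SRC2-3 peptide binding is read by fluorescence polarization.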
# * hit, by the source's call; ? = inconclusive; & = joins results of further samples; [ ] = another dose, or the depositor's remark. On the % scale 0 is the no-effect control and ±100 the full control effect; potency means the concentration at half of the fitted maximal effect. A portion of the library; rates above refer to the full screens.
VDR inhibitor | SMILES
-15.0% | O=C(CN1CCSCC1)N/N=C/c1ccc(F)cc1
-1.4% | Cc1ccc(S(=O)(=O)c2nc(S(=O)(=O)c3ccccc3)sc2NCCCOC(C)C)cc1
13.8% | O=C(COC(=O)Cc1ccc(Br)cc1)NCc1ccc2c(c1)OCO2
-11.3% | COCCN(C(=S)Nc1ccccc1OC)C(C)c1cccs1 (stereo not drawn)
-5.4% | COc1ccc2nc(NC(=O)c3ccc(F)cc3)sc2c1
6.0% | C(=N/Nc1cc(N2CCOCC2)nc(N2CCOCC2)n1)/c1ccccc1
8.9% | CCOc1ccc(OCCSc2nnnn2C2CCCCC2)cc1
-12.6% | O/N=C/c1cccn1-c1ccc(O)cc1
1.7% | COc1ccc(-n2c(SCC(=O)NCc3cccs3)nc3[nH]ncc3c2=O)cc1
? | Cc1cccc(C)c1NC(=O)CCc1nnc2ccc(N3CCCC3)nn12

VDR inhibitor | SMILES
1.2% | COC(=O)c1ccccc1NC(=S)N(Cc1ccc2c(c1)OCO2)Cc1cc2cccc(C)c2[nH]c1=O
-18.0% | CCN(CC)CCCNC(=O)c1cc2c(-c3ccc(Cl)cc3)nn(C)c2s1
-1.3% | COC(=O)C(NC(=O)c1ccccc1C)(Nc1ncc(S(=O)(=O)c2ccc([N+](=O)[O-])cc2)s1)C(F)(F)F (stereo not drawn)
-3.1% | OC(COc1ccc(OCc2ccccc2)cc1)CN1CCCCC1 (stereo not drawn)
-0.9% | COc1ccc(CCNc2ccc(C(CC(N)=O)NC(=O)c3ccccc3)cc2[N+](=O)[O-])cc1 (stereo not drawn)
-0.5% | COc1ccc(C(=O)NCc2ccc(N3CCN(C(=O)OC(C)(C)C)CC3)cc2)cc1
20.7% | Cc1ccc(S(=O)(=O)N2CCCCC2)cc1NC(=O)COC(=O)c1cc[n+]([O-])cc1
1.5% | CCc1ccc(-n2nc(C)c3c(C(=O)Nc4ccc(Cl)cc4)cc(C)nc32)cc1
2.0% | COc1ccc(-c2nc(CN3CCCC(C(=O)NC4CCCC4)C3)c(C)o2)cc1 (stereo not drawn)
-20.7% | O=C(NNC(=O)c1ccccc1-n1cccc1)c1ccc(F)cc1

VDR inhibitor | SMILES
3.4% | COc1ccccc1NC(=S)N(Cc1ccccc1)Cc1cccnc1
-5.3% | Cc1onc(-c2c(Cl)cccc2Cl)c1C(=O)N1CCSCC1
1.7% | Cc1ccc(S(=O)(=O)N2CC(=O)Nc3ccccc32)cc1
-2.3% | CCOC(=O)N1CCN(C(=O)C2CCC(=O)N(Cc3cccc(C(F)(F)F)c3)C2)CC1 (stereo not drawn)
17.3% | CCOc1cc(C(=O)Nc2ccc(-c3nc4ccccc4s3)cc2Cl)cc(OCC)c1OCC
9.1% | CC1CN(C(=O)N[C@@H](Cc2ccccc2)C(=O)O)CC(C)O1 (stereo partly drawn)
-14.9% | Cc1ccc(C(=O)C[n+]2ccccc2)cc1
-11.0% | COc1cc(Cl)c(C)cc1NC(=O)Cc1cccs1
-12.5% | CCN(c1cccc(C)c1)S(=O)(=O)c1ccc(-c2cc(C)no2)s1
-10.1% | COc1cc2c(cc1OC)C(c1cc(Br)ccc1O)N(C(C)=O)CC2 (stereo not drawn)

# An excerpt of these results, comma-delimited:
molecule,VDR inhibitor
Cc1onc(-c2c(Cl)cccc2Cl)c1C(=O)N1CCSCC1,-5.3%
Cc1ccc(S(=O)(=O)N2CC(=O)Nc3ccccc32)cc1,1.7%

# Following part:
VDR inhibitor | SMILES
-2.1% | O=C(C1=NN[C@@H]2C(=O)N(c3ccccc3C(F)(F)F)C(=O)[C@H]12)C(c1ccccc1)c1ccccc1
-13.0% | C#CCOCCOCCOCCNc1nc(N2CCN(C(=O)Cn3cc(CCCCN)nn3)CC2)nc(N2CCN(C(=O)[C@H]([C@@H](C)CC)n3cc(CCCCN)nn3)CC2)n1
5.5% | COc1ccc(C2Oc3cc(OC)cc(OC)c3CC2O)cc1 (stereo not drawn)
5.0% | COc1cccc(NC(=O)Cn2c(=O)n(Cc3ccc4c(c3)OCO4)c(=O)c3oc4ccccc4c32)c1
-9.5% | COc1ccc(/C=C/C(=O)N2CCN(c3ccccc3)CC2)cc1S(=O)(=O)N1CCOCC1
18.1% | COCCCNC(=O)c1cn(-c2cccc(OC)c2)c(=O)c2ccccc12
3.0% | CC1CCN(C(=O)Cn2c(=O)n(-c3ccc(Cl)cc3)c(=O)c3c4c(sc32)CCC4)CC1
13.3% | CC(NC(=O)c1ccccc1F)c1nnc(SCC(=O)NC2CCCCC2)n1C (stereo not drawn)
1.2% | Cc1ccc(OC(C)C(=O)N2CCN(CCc3ccccn3)CC2)cc1C (stereo not drawn)
-18.5% | Cc1ccc(-c2cc(C(=O)Nc3cc(C)on3)no2)cc1

VDR inhibitor | SMILES
2.4% | Cc1ccc(C)c(Cn2nnc3c(=O)[nH]c(C4CCN(S(=O)(=O)c5ccc(S(=O)(=O)N(C)C)cc5)CC4)nc32)c1
2.0% | CCCCNC(=O)Cn1nc(C)c(S(=O)(=O)N2CCOCC2)c1C
-5.0% | CCCn1nnc(NC(=S)NC(=O)/C=C/c2ccco2)n1
3.3% | CCCOc1cccc(C(=O)Nc2ccc(-c3cc4ccccc4oc3=O)c(C)c2)c1
-1.8% | COc1ccc(NC(=O)NCCCN2CCN(c3ccccc3F)CC2)cc1
-4.1% | CC(=O)Oc1ccc(C(=O)O)cc1OC(C)=O
6.9% | CCOc1ccc(C(=O)OCC(=O)NC(C)C)cc1
? | Cc1nc(-c2ccccc2Cl)sc1C(=O)/C=C/N(C)C
-5.7% | O=c1[nH]c(=O)c2cc3ccccc3nc2[nH]1
-8.5% | O=[N+]([O-])c1cccc(-c2n[nH]c(=S)n2Cc2ccccc2)c1

VDR inhibitor | SMILES
-1.6% | CC(=O)c1ccc(N=C2NC(=O)C(CO)(CO)S2)cc1
2.8% | Cc1ccc(C2=C/C(=C/c3cccs3)C(=O)O2)cc1
5.8% | Cc1ccc(/C=C/c2onc(C)c2S(=O)(=O)N2CCC(C(=O)Nc3ccccc3C(F)(F)F)CC2)cc1
7.2% | Cn1cnnc1SCC(=O)Nc1cc(S(=O)(=O)N2CCCCCC2)ccc1Cl
-8.7% | COc1ccccc1C(=O)Nc1ccnn1C1CCN(Cc2cnn(C)c2C)CC1
0.3% | Cc1noc(C)c1C(=O)OCC(=O)N(C)C1CCS(=O)(=O)C1 (stereo not drawn)
5.3% | NCCc1c(-c2ccccc2)n(-c2ccccc2)c2ccccc12
-0.4% | CC(=O)NC(CC(=O)N1CCN(C(C)=O)CC1)c1ccccc1 (stereo not drawn)
16.9% | CN(CC(=O)NCc1ccccn1)S(=O)(=O)c1ccc2ccccc2c1
-0.5% | CCCCOc1ccc(C2=NC(c3ccccc3)=Nc3ccc(OC)cc3N2)cc1

VDR inhibitor | SMILES
-5.3% | CC(C)Nc1cc(C(C)(C)C)nc2c(-c3ccccc3)cnn12
2.2% | COc1cc(CNCc2ccccc2)cc(Cl)c1OC
-6.6% | CCCCn1c(N)c(N(CC(C)C)C(=O)c2cccc(S(=O)(=O)N(CC)c3ccccc3)c2)c(=O)[nH]c1=O
4.3% | CN(C)CCCOc1c2ccccc2n(Cc2ccccc2)[n+]1[O-]
-20.3% | COc1ccc(NC(=O)c2ccccc2Oc2ccccc2)c(OC)c1
-0.7% | CC1(C)OC2C[C@](O)(C(N)=O)C[C@H](O)[C@H]2O1 (stereo partly drawn)
2.2% | COc1ccccc1NC(=O)c1sc2nc(N3CCOCC3)c3c(c2c1N)CCCC3
27.1% | c1ccc2c(c1)Cc1cc3ccccc3nc1-2
5.6% | CN(C)c1ccc(NC(=O)Cn2nnc3sc4c(c3c2=O)CCC(C(C)(C)C)C4)cc1 (stereo not drawn)
-13.7% | CSc1nc2nc(-c3cccc(C(F)(F)F)c3)ccn2n1

VDR inhibitor | SMILES
-12.2% | COc1ccc(NC(=O)c2c(NCc3ccc(C)o3)sc3c2CCC(C)C3)c(OC)c1 (stereo not drawn)
-1.2% | Cc1ccc(Cl)c(NC(=O)CCl)c1Cl
16.4% | CC(C)CNS(=O)(=O)c1ccc(N2CCCCS2(=O)=O)cc1
7.3% | CCOC(=O)C1(Cc2cccc(F)c2)CCN(Cc2c(C)nn(CC)c2C)CC1
13.9% | COC(=O)Cc1ccc(OCC(=O)Nc2ccc(OC(F)(F)F)cc2)cc1
-10.9% | Cc1cc2ccccc2n2c(SCC(=O)Nc3ccc(S(=O)(=O)N4CCCCC4)cc3)nnc12
-2.6% | CCOC(=O)c1cc(C)[nH]c(=S)c1C#N
20.3% | COc1cc(C(=O)Nc2ccc3c(c2)C(=O)c2ccccc2C3=O)cc(OC)c1OC
-9.9% | CC(C)CN(C(=O)COC(=O)CCC(=O)c1ccc(F)cc1)c1c(N)n(Cc2ccccc2)c(=O)[nH]c1=O
-12.5% | CCOc1ccc(NC(=O)CN(C)C(=O)c2cc([N+](=O)[O-])ccc2Sc2ccccc2)cc1OCC

# Next section; the last 4 above are carried over.
VDR inhibitor | SMILES
-2.6% | CCOC(=O)c1cc(C)[nH]c(=S)c1C#N
20.3% | COc1cc(C(=O)Nc2ccc3c(c2)C(=O)c2ccccc2C3=O)cc(OC)c1OC
-9.9% | CC(C)CN(C(=O)COC(=O)CCC(=O)c1ccc(F)cc1)c1c(N)n(Cc2ccccc2)c(=O)[nH]c1=O
-12.5% | CCOc1ccc(NC(=O)CN(C)C(=O)c2cc([N+](=O)[O-])ccc2Sc2ccccc2)cc1OCC
-6.3% | Brc1ccc(C2=CC(c3ccco3)n3nnnc3N2)cc1 (stereo not drawn)
-16.5% | CC(=O)c1cccc(NC(=O)c2ccncc2)c1
-10.1%&7.8%&-26.7% | CCCCCCCCCCCCCCCC(=O)NCCO
? | Cc1cc(/C=N/NC(N)=S)c(C)n1-c1ccc(Br)cc1
26.9% | COCC1CCN(Cc2cn(-c3ccccc3F)nc2-c2cc(C)sc2C)CC1
-5.8% | O=C(O)c1ccc(-c2sc(Nc3ccccc3)n[n+]2-c2ccc(F)cc2)cc1
-8.1% | O=C(CNC(=O)c1ccc(S(=O)(=O)N2CCCC2)cc1)N/N=C/c1ccc(Cl)cc1
3.6% | CCCCCc1ccc(OCCC[n+]2ccccc2)c(CCCCC)c1
-13.1% | CC(C)CCN1CCN(C2CSCCSC2)CC1CCO (stereo not drawn)
-17.6% | COc1ccccc1NC(=O)CNc1ccc(F)c(Cl)c1

VDR inhibitor | SMILES
-11.9% | CC12CCC(=O)N1C(C(=O)Nc1cc(C(F)(F)F)ccc1N1CCOCC1)CS2 (stereo not drawn)
0.1% | N#Cc1ccccc1NC(=O)CSc1nccn1CCc1ccccc1
-1.7%&3.3% | CC(C)NC[C@H](O)c1ccc2ccccc2c1
-14.4% | Cc1ccc2cc(CN(CCCO)S(=O)(=O)c3ccccc3F)c(=O)[nH]c2c1C
9.8% | O=C(Cn1cc(COc2ccc(Br)cc2)nn1)c1ccc(O)cc1
-5.6% | Cc1ccc(CCNC(=O)c2sc3ncccc3c2-n2c(C)ccc2C)cc1
31.5%[activator] | O=C(CSc1nc2ccccc2[nH]1)c1c[nH]c2ccccc12
4.5% | CCOc1ccc(-n2c(=O)c3c(C)c(C)sc3n(Cc3c(F)cccc3Cl)c2=O)cc1
-1.7% | COc1ccc(OCCC(=O)OCC(=O)NC(=O)NC2CCCCC2)cc1
5.8% | O=C(O)c1ccc(NC(C(=O)c2ccccc2)c2ccccc2)cc1 (stereo not drawn)

VDR inhibitor | SMILES
14.3% | Cc1ccc(NC(=O)c2cc3c(s2)CCCC3)cc1
-4.7% | C/C(=N\Nc1nc(Cl)c(Cl)cc1Cl)c1ccc(S(=O)(=O)NCc2ccco2)cc1
-20.8% | CCN1C(=O)[C@H]2[C@@H](c3ccc(-c4ccc(OC)cc4)cc3)N[C@@](Cc3ccccc3)(C(=O)OC)[C@H]2C1=O
8.8% | O=C(Nc1ccc(Cl)cc1)Nc1cccnc1
-1.2% | COC(=O)c1ccc(/C=C/c2ccc3cccc(OC)c3n2)cc1
7.6% | Cc1cc(N)n(-c2cc(C)c3ccccc3n2)n1
-13.0% | CN1C[C@@H]2[C@@H]3C(=O)N(C)C(=O)[C@@H]3[C@](C)(C1=O)N2C(=O)c1ccc(Cl)c(Cl)c1
-16.3% | O=C1NC2=C(C(=O)c3ccccc32)C(c2ccccc2)N1 (stereo not drawn)
-0.3% | O=C(CCCNS(=O)(=O)c1cccc2nsnc12)NCc1ccc(Cl)cc1
-6.5% | COC(=O)[C@@]1(Cc2ccc(F)cc2)[C@H]2c3cc(C(=O)N(C)C)n(C[C@H](O)CO)c3C[C@H]2CN1C(=O)c1ccccc1

VDR inhibitor | SMILES
-0.1% | NC(=O)C1(N2CCCCC2)CCN(C2CC(=O)N(Cc3cccs3)C2=O)CC1 (stereo not drawn)
-2.4% | O=C(NCc1ccncc1)C(=O)N/N=C/c1ccc(OCc2ccccc2)cc1
-13.0% | CCc1ccc(C(N)=S)cc1
3.2% | COc1ccc(-c2noc(C3CC(=O)N(c4cc(C)cc(C)c4)C3)n2)cc1 (stereo not drawn)
-20.1% | CC(C)C[C@@H](CN1C(N)=NC[C@@H]1C)NC(=O)CC12CC3CC(CC(C3)C1)C2
-17.6% | O=C(CN1C(=O)COc2ccccc21)NCc1ccc(C(=O)O)cc1
15.3% | C=CCNc1ncnc2c1cnn2-c1ccc(OC)cc1
1.7% | Cc1ccc(-n2cnc3c(=O)[nH]cnc32)cc1
19.7% | COc1ccccc1C/C(N)=N/OC(=O)COc1cc(C)cc(C)c1C
8.3% | O=C(c1ccc(CS(=O)c2cccc(Cl)c2)o1)N1CCN(c2ccccn2)CC1 (stereo not drawn)

# Reformatted: entries from further up.
SMILES: C=CCNc1ncnc2c1cnn2-c1ccc(OC)cc1
- VDR inhibitor = 15.3%
SMILES: Cc1ccc(-n2cnc3c(=O)[nH]cnc32)cc1
- VDR inhibitor = 1.7%
SMILES: COc1ccccc1C/C(N)=N/OC(=O)COc1cc(C)cc(C)c1C
- VDR inhibitor = 19.7%
SMILES: O=C(c1ccc(CS(=O)c2cccc(Cl)c2)o1)N1CCN(c2ccccn2)CC1 (stereo not drawn)
- VDR inhibitor = 8.3%

# Bioassay records as filed in PubChem.
